Screens as filed in PubChem.
VDR inhibitor – vitamin D3 receptor (human) inhibition | P11473 | VDR-SRC2-3 peptide fluorescence polarization, 2 h | Potency, µM, for inactives: max response, negative = inhibition, most hits filed as inhibitors | hit rate 0.93% among 400,000 | AID 504847; active means well fitted inhibition curve with a large enough effect; inconclusive means small, poorly fitted or top-dose-only effect, or another doubt; inactive means no such curve, though single readings can be large or run the other way; further: series mostly up to about 120 µM
Target sequence (P11473 whole entry, looked up): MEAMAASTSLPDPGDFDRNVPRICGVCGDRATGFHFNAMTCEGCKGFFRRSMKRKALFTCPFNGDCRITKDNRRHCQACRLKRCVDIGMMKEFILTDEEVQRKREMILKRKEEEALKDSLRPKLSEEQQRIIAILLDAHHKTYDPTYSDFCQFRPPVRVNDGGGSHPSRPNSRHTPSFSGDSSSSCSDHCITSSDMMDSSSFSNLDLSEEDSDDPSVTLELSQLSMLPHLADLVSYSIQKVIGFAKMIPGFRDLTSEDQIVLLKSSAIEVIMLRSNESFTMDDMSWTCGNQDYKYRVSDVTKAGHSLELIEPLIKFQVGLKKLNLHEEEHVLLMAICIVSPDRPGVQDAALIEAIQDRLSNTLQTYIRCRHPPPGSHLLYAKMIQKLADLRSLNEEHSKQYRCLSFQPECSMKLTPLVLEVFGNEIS
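Measured by FP: displacement of SRC2-3 coactivator peptide from VDR by library compounds, following a two-hour ambient incubation.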
The depositor's hits bear a star; ? = inconclusive; & = joins results of further samples; [ ] = remark or other dose. On the % scale 0 is the no-effect control and ±100 the full control effect; potency means the concentration at half of the fitted maximal effect. Not all compounds are listed; count on the stated rates, not on these rows.

compound,VDR inhibitor
O=C(Nc1cccnc1)c1cc(-c2ccc(Cl)cc2)on1,-15.5%&-6.9%
COC(=O)CC1Oc2ccc(C)cc2-n2cc(-c3ccc(F)cc3)nc21 (stereo unspecified),-4.7%
COc1ccc(S(=O)(=O)N2CCOC2CNC(=O)C(=O)NCc2cccnc2)cc1C (stereo unspecified),-2.2%
CC(O)(CS(=O)(=O)Cc1ccc(Cl)cc1)C(=O)Nc1cccc(C(F)(F)F)c1 (stereo unspecified),-1.5%
Cn1c(SCC(=O)N2CCOCC2)nc2c(c1=O)SCC2,-10.5%
Nn1c(SCC(=O)NCc2ccc3c(c2)OCO3)nnc1C1CC1,-7.0%
CC1(C)c2[nH]c3ccccc3c2C[C@@H]2C(=O)N(c3ccc(F)cc3F)C(=O)N21,-8.0%
Cc1ccc(S(=O)(=O)N2CCC(=O)N(C(COC(=O)Nc3ccccc3)Cc3ccccc3)CC2)cc1 (stereo unspecified),-5.7%&-11.1%
Cc1cccc(C(=O)NCc2nnc(SCC(=O)Nc3ccccc3F)n2-c2ccccc2)c1,-19.1%
CCOC(=O)c1cccc(NC(=O)CCc2ccccc2)c1,34.6%[activator]
c1ccc2c(OCCCCN3CCCC3)cccc2c1,-3.6%
CCOC(=O)c1c(C)[nH]c(C)c1C=O,-0.6%
Cc1cn(C(C)C)c(=O)n(-c2ccccc2)c1=O,-1.7%
NC(Cc1ccc(Cl)cc1)C(=O)O (stereo unspecified),2.4%&0.7%
Clc1ccc(CSc2nncn2-c2ccc3c(c2)OCCO3)cc1,-4.6%
CCN(Cc1ccccc1)C(=O)CSc1ncn[nH]1,-17.1%
Cc1ccc(C(=O)Nc2ncccc2S(=O)(=O)c2ccccc2)cc1,9.5%
Cc1ccccc1NC(=O)Cc1nc(COC(=O)COc2ccccc2C(C)C)cs1,-3.7%
O=C(NC1CC2CCCC(C1)N2C(=S)NCCc1ccccc1)C1CC1 (stereo unspecified),-20.4%
O=C(NCCNC(=O)c1ccc([N+](=O)[O-])cc1)c1ccncc1,-4.6%
CCn1c(=O)c(C(=O)Nc2ccccc2)c(O)c2ccccc21,-2.6%
CC1=CC(=C(C#N)C#N)C=C(C)N1Cc1ccccc1,10.8%
COc1cccc(-c2n[nH]c(=S)n2Cc2ccco2)c1,?
CC(=O)C1CCC2C3CC=C4N(C)C(=O)CCC4(C)C3CCC12C (stereo unspecified),?
O=C(O)CC/C(=N\NC(=O)c1ccc(F)cc1)c1ccc(Br)cc1,-1.1%
NC(=O)C1CCN(C(=O)c2cc(S(=O)(=O)N3CCOCC3)c(Cl)cc2Cl)CC1,-8.0%
COc1ccc(S(=O)(=O)N2CCOC23CCN(S(=O)(=O)c2ccccc2)CC3)cc1,-10.1%
CCn1c(SCC(=O)Nc2ccc(N3CCOCC3)c(Cl)c2)nnc1-c1ccc(N)cc1,4.9%
COc1ccc(OC)c(N/C=C/C(=O)c2ccc(OC)c(OC)c2)c1,-5.7%
Cc1ccc(CC2CC(=O)N(CC(=O)O)C2=O)cc1 (stereo unspecified),9.9%
CC(=O)N[C@@H](C)C(=O)N1CCN(S(=O)(=O)c2ccc(Cl)cc2)CC1,2.0%
COc1cccc(N2CCN(C(=O)Cn3nc(C)n4c(cc5c(OC)cccc54)c3=O)CC2)c1,-15.5%
CC(C)(C)C1CCC(N2CCN(c3ccccc3)CC2)CC1 (stereo unspecified),3.7%
COC(=O)c1sccc1NC(=O)c1ccc(OC)c([N+](=O)[O-])c1,-22.7%
CCc1sc(NC(=O)CN2CCOCC2)nc1-c1ccccc1,-13.5%
CC(N)(C(=O)O)c1ccc(-c2nn[nH]n2)cc1 (stereo unspecified),4.1%
CCOc1ncccc1C(=O)OCC(=O)N(CC(C)C)c1c(N)n(Cc2ccccc2)c(=O)[nH]c1=O,16.8%
CS(=O)(=O)N(CC(=O)N1CCCC1)c1cc(C(F)(F)F)ccc1Cl,1.8%
COC(=O)c1nn(-c2ccccc2)c(Sc2ccc(C)cc2)c1/C=N/O,13.6%
O=C(CN(C(=O)c1csnn1)c1cccc(Cl)c1)NC1CCCCC1,-19.0%
CC(/C=C/C=C/c1ccccc1)=N/NC(=O)C(O)c1ccccc1 (stereo unspecified),-1.1%
O=C(C1CCN(Cc2ccc(F)cc2)CC1)N(CCc1ccccc1)Cc1ccccc1,7.7%
O=C(CC1C(=O)NCCN1CC1CCCCC1)NCc1ccc(F)cc1 (stereo unspecified),5.3%
CC1(C)C2CCC1(CS(=O)(=O)N1CCCc3ccccc31)C(=O)C2 (stereo unspecified),-4.2%
COc1cc2ncc(C(=O)c3ccccc3)c(N3CCN(Cc4ccccc4)CC3)c2cc1OC,-2.1%
OC(C#CCN1CCCC1)(c1ccccc1)c1cccnc1 (stereo unspecified),-17.0%
CC(=O)NCCNc1nc2c(-c3ccc(C)cc3)nnn2c2ccccc12,-5.3%
COc1ccc2cc(CNc3ccc(C)cc3)c(=O)n(CC(=O)Nc3ccc(C)cc3Cl)c2c1,11.5%
O=C(N/N=C/c1cccc2ccccc12)c1cccnc1,12.4%
CN(C)c1ncc(C(=O)O)cn1,15.5%
Cc1ccc(-c2nc(NC(=O)c3cc(C(C)(C)C)nn3C)sc2C)cc1Cl,-5.5%
CN(C)C(=O)c1ccc(-c2cncnc2N(C)Cc2ccco2)cc1,?
COc1ccc(/C=C(/NC(=O)c2ccc(OC)cc2)C(=O)NCCc2c[nH]c3ccccc23)cc1,?
CCN1CCN(c2ccc(NC(=O)c3ccc(Cl)c(N4CCCC4=O)c3)cc2)CC1,14.2%
O=c1c(-c2ccc(F)cc2)nc2cnc(N3CCOCC3)nc2n1C[C@H]1CCCO1,0.4%
CC(=O)c1cccc(CN2CCCCC2C(=O)Nc2ccc(Oc3ccccc3)nc2)c1 (stereo unspecified),-14.9%
CCOC(=O)C1(CCCc2ccccc2)CCN(S(=O)(=O)N(C)C)CC1,-11.8%
Cc1c(NC(=O)Nc2c(Cl)cccc2Cl)c(=O)n(-c2ccccc2)n1C,15.6%
CC(C)CNC(=O)COC(=O)c1cc(S(=O)(=O)N(C)C)ccc1N1CCCC1,5.9%
CCOC(=O)N/N=C/c1c(F)cccc1F,-11.7%

In a second layout: 3 of the compounds above
VDR inhibitor | SMILES
11.5% | COc1ccc2cc(CNc3ccc(C)cc3)c(=O)n(CC(=O)Nc3ccc(C)cc3Cl)c2c1
12.4% | O=C(N/N=C/c1cccc2ccccc12)c1cccnc1
15.5% | CN(C)c1ncc(C(=O)O)cn1

Ordered by value in VDR inhibitor (smallest number first): three from the list above
compound,VDR inhibitor
CC(=O)c1cccc(CN2CCCCC2C(=O)Nc2ccc(Oc3ccccc3)nc2)c1 (stereo unspecified),-14.9%
CCOC(=O)N/N=C/c1c(F)cccc1F,-11.7%
CCN1CCN(c2ccc(NC(=O)c3ccc(Cl)c(N4CCCC4=O)c3)cc2)CC1,14.2%

Going on with the list.
compound,VDR inhibitor
Cc1cc(CCNC=O)c(C)c2c1oc1ccccc12,-12.4%
Cc1ccc(S(=O)(=O)c2nc(C(C)(C)C)oc2N2CCOCC2)cc1,?
CCCCCn1c(CCCNC(=O)c2ccccc2OC)nc2ccccc21,10.5%
Cc1cccc(-c2noc(CN(C3CCCCC3)S(=O)(=O)c3ccc(F)cc3)n2)c1,14.0%
CCOc1cc2[nH]c(=O)n(CCC(=O)NCCc3ccc(OC)c(OC)c3)c(=O)c2cc1OCC,-1.8%
COc1cc2c(cc1OC)C(COc1cccc(C(F)(F)F)c1)N(C(=O)c1ccc(S(=O)(=O)N3CCCC3)cc1)CC2 (stereo unspecified),11.9%
Cc1cc(NC(=O)NN2CCOCC2)nn1-c1c(Cl)cc(Cl)cc1Cl,3.8%
C=CCNc1cc(N2CCCC2)ccc1[N+](=O)[O-],16.0%
CCOc1cc(/C=N/NC(=O)C(=O)Nc2cc(Cl)ccc2C)ccc1O,-5.6%
CCCCOc1ccc(C(=O)N/C(=C\c2ccc(OC)cc2)C(=O)OCc2ccco2)cc1,17.9%
CCc1c(C)nc2ncnn2c1N1CCC(C(=O)Nc2ccc(C)cc2)CC1,-1.1%
O=C(c1ccco1)N1CCC(c2nc3c(nnn3Cc3ccccc3Cl)c(=O)[nH]2)CC1,0.3%
Cc1ccc2nc(-c3ccncc3)c(NC3CCCCC3)n2c1,0.4%
C[C@H]1CN([C@@H](C)CO)C(=O)c2cc(NS(=O)(=O)c3ccc(Cl)cc3)ccc2O[C@@H]1CN(C)CC1CCCCC1,89.1µM*
CCN(Cc1ccncc1)C(=O)c1cc(COc2c(C)cccc2C)on1,25.5%
O=C1C(=O)N(CCN2CCOCC2)C(c2ccc(Cl)c(Cl)c2)/C1=C(/O)c1ccc2c(c1)OCO2 (stereo unspecified),-28.3%
CC1Cc2ccccc2N1CC(=O)c1c(N)n(Cc2ccccc2)c(=O)n(C)c1=O (stereo unspecified),-14.0%
O=C(Nc1n[nH]c(C2CCCCC2)n1)C1CCCCC1,-3.1%
O=C(NCC(c1ccco1)N1CCN(c2ccccc2F)CC1)OCc1ccccc1 (stereo unspecified),-4.3%
O=C(c1ccccc1)N1CCN(C(=O)c2nn3c(C(F)(F)F)cc(-c4ccco4)nc3c2Cl)CC1,-11.6%
Cn1c(N)c(C(=O)COC(=O)CCC2CCCCC2)c(=O)n(C)c1=O,-10.9%
CCN(CC)CCCn1c2c(c(SCC(=O)Nc3nc(C)cs3)nc1=O)CCC2,-28.3%
CNc1nc2sc3c(c2c(=O)n1C)CC(C)(C)SC3,-6.3%
Cc1nnc(NCc2ccc(Cl)cc2)c2c1nnn2Cc1ccc(F)cc1,-4.3%
Oc1ccc(F)cc1-c1cc(-c2ccc3c(c2)OCCO3)n[nH]1,18.5%
CCN(CC)S(=O)(=O)c1ccc2c(c1)nc(CN(C)C(=O)Nc1ccc(F)cc1)n2C,8.8%
CCOC(=O)c1cnc(SCc2nc(N)nc(Nc3ccccc3)n2)nc1N,2.7%
O=C(O)C(=Cc1ccccc1)Cc1ccccc1,7.9%
CCN1C(=O)CC(c2ccc(OC(C)C)cc2)C1=O (stereo unspecified),-2.2%
Clc1ccc(Cn2c(-c3cccnc3Cl)nc3ccccc32)cc1,11.2%
Clc1ccc(-c2csc(=Nc3cccnc3)n2CCCn2ccnc2)cc1Cl,-8.9%
CC(C)(OC(=O)c1ccc(C(F)(F)F)cc1)c1cc2ccccc2c(=O)o1,-3.4%
CC(=O)N/C(=C\c1ccccc1)C(=O)NC(C)C(=O)O (stereo unspecified),3.3%
Cc1cc(C)n(-c2ccc(C(=O)NC(C)C)cc2)n1,9.7%
O=C(COC(=O)/C=C/c1ccco1)Nc1cccc([N+](=O)[O-])c1,-12.4%
CCCCN(Cc1ccco1)S(=O)(=O)c1c[nH]c(C(=O)OC)c1,-9.1%
CN(C/C=C/c1ccccc1)C1CCCCC1,-10.8%
O=C(Cn1nnc(-c2ccccc2)n1)N/N=C/c1ccco1,32.9%[activator]
COc1cccc(C2C3=C(CCCC3=O)Nc3nc(-c4cc(OC)c(OC)c(OC)c4)nn32)c1 (stereo unspecified),2.0%
CC(=O)c1cccc(NC(=O)C2CCCN(S(=O)(=O)c3ccccc3)C2)c1 (stereo unspecified),-4.6%
Oc1ccccc1-c1nnc(-c2ccc(C(F)(F)F)cc2)o1,0.5%
O=C(N/N=C/c1cc2c(cc1Cl)OCO2)c1ccncc1,-0.5%
O=C(CSc1nnc(SCc2ccc(Cl)cc2)s1)N1CCOCC1,-3.4%
Cc1cc(Cl)ccc1OCC(=O)N(Cc1ccc(N(C)C)cc1)C1CCS(=O)(=O)C1 (stereo unspecified),9.3%
Cc1cc(N2CCOCC2)nc(-c2ccc([N+](=O)[O-])cc2)n1,-2.9%
O=C(NCc1cc([N+](=O)[O-])ccc1O)c1cccnc1Sc1ccc(Cl)cc1,-7.9%
N#Cc1ccccc1NC(=O)CSc1nnc(-c2ccncc2)o1,-6.1%
Cc1ccccc1Oc1nc2ccccn2c(=O)c1/C=C(\C#N)C(=O)Nc1c(C)n(C)n(-c2ccccc2)c1=O,?
CCCc1cc(C(N)=O)c(NC(C)=O)s1,3.3%
CC1CCN(CCCNC(=O)CCc2nnc3n(CCc4ccccc4)c(=O)c4ccccc4n23)CC1,0.1%
Cn1c(SCC(=O)Nc2ccc3c(c2)oc2ccccc23)nnc1-c1ccccc1,-11.6%&8.2%
Cn1c(SCc2cc(=O)n3cc(Br)ccc3n2)nnc1C1COc2ccccc2O1 (stereo unspecified),-8.6%
CCN1CCCC1Cn1cnc2c([nH]c3ccc(OC)cc32)c1=O (stereo unspecified),13.4%
Cc1cc(C)nc(N2CCCC(C(=O)Nc3ccc4nc(C)c(C)nc4c3)C2)n1 (stereo unspecified),-17.3%
CCC(Cc1c(I)cc(I)c(O)c1I)C(=O)O (stereo unspecified),31.6µM*
CCCCCCCCCCCCN1C/C(=C\C(=O)OCC)c2ccccc2S1(=O)=O,2.0%
CC1CCC(N2CCN(C(=O)c3ccccc3F)CC2)CC1 (stereo unspecified),8.6%
O=C(Nc1cccs1)N1CCN(c2ncccn2)CC1,-0.9%
NC(=O)c1c(N)sc2c1CCC2,-4.0%
COc1ccc(NC(=O)CN(C)S(=O)(=O)c2ccc3c(c2)CCCN3C(C)=O)cc1Cl,2.4%
